Compound activity: PubChem BioAssay, several laboratories
HIV Env fusion = blocks HIV Env-driven cell-cell fusion. inhibition, % at 12.3 µM. hit rate 1.1% among 360,000. HeLa-JRFL Env/CEM21 cell fusion, luciferase;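 active = mean replicate inhibition score of at least 50 and every replicate individually at or above 50; inconclusive = only one of the two criteria met; inactive = mean below 50 and not all replicates reaching 50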;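 note: 0% = plate neutral controls and 100% = maraviroc near 300 nM; one replicate is shown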
eIF4H inh = inhibitors of RNA binding by human eIF4H. inhibition, % at 35 µM. eIF4H fluorescence polarization binding assay. hit rate 0.94% among 290,000;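 active = 50% or more with normal probe brightness, or confirmed in later tests; inconclusive = above 50% with abnormal brightness, or retests that disagree; inactive = below 50% or failed in later tests; about a fifth of its hits are not listed in these tables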;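 note: calls also rest on retests at 20 µM and on dose response follow-up; 0% = protein and probe with vehicle and 100% = probe without protein; strong numbers were not always called active; many hits fall short of the cut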
Rce1 inhib = yeast Ras-converting enzyme inhibition; yeast membranes, quenched prenylated peptide cleavage fluorescence; calls only; hit rate 0.27% among 290,000;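 active = fall in fluorescence gain of 50% or more versus controls, with final raw signal at or below 3038400; inconclusive = same 50% fall but final raw signal above 3038400; inactive = fall in fluorescence gain under 50%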;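 note: plate controls were neutral control wells for no effect and wells lacking membranes for full effect; tested at 10 µM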
Target sequence (Q03530 whole entry, looked up): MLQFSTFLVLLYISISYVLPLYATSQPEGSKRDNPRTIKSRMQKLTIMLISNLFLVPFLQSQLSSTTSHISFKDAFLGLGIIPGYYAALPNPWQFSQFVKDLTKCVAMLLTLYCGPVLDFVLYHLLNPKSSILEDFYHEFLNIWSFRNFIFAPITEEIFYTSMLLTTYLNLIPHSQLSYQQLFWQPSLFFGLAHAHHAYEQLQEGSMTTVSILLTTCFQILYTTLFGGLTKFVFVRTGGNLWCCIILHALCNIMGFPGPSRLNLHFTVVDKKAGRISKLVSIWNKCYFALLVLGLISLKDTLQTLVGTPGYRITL
Yeast UUG start = modulators of start codon recognition fidelity in yeast. hit rate 0.13% among 350,000. S. cerevisiae UUG-firefly luciferase reporter, luminescence/redox ratio. AID 602363. activity score, % at 18.7 µM;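 active = replicate mean at a twofold rise or more, about +100% in these data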;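 note: firefly luciferase made from a UUG start codon reports start codon fidelity; reporter light over untreated wells divided by growth signal over untreated wells; some hits fall short of that in this replicate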
CSC inhib = cancer stem cell inhibition; cancer stem cell-like cells viability, luminescence; inhibition, % at 7.5 µM; hit rate 1.1% among 300,000;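 active = mean at 75% or more and at least half the replicates too; inconclusive = mean and replicates disagree; tested in HMLE shEcad cells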;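 note: 0% = median of negative and 100% = median of positive control wells; the first replicate is given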
MT1-MMP act inh = blocks activation of human MT1-MMP; GFP/RFP ratio change, % at 20 µM; hit rate 0.061% among 360,000; P50281; HT1080 RFP-PRO-GFP cells, GFP/RFP ratio fluorescence, overnight; percent of plate control window, DMSO zero;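 active = GFP/RFP ratio change of at least 30% with cell ATP level not reduced by more than half and red fluorescence within 50% of control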; note: strong numbers were not always called active
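Read-out: GFP/RFP fluorescence ratio; Test system: RFP-PRO-GFP reporter HT1080 cells; Compound dosing: single-point 20 µM compound, 1% DMSO; Times: overnight compound exposure at 37 °C.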
PABP polyA inh = PABP-poly(A) binding inhibition. inhibition, % at 35 µM. P11940. hit rate 1% among 290,000. PABP-poly(A) RNA binding, fluorescence polarization;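 active = 50% or more with normal probe brightness, or confirmed in later tests; inconclusive = above 50% with abnormal brightness, or retests that disagree; inactive = below 50% or failed in later tests; about a fifth of its hits are not listed in these tables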;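 note: calls also rest on retests at 20 µM and on dose response follow-up; controls were probe without protein and protein plus probe with vehicle; some compounds called inactive have numbers as strong as hits; many hits fall short of the cut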
eIF4H inh retest = further read-out of eIF4H inh, marked with its call; inhibition, %; compound at 20 µM; confirmation average;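 mean of two retest wells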
PABP polyA inh retest = second read-out of PABP polyA inh, no call of its own (marks repeat the call); inhibition, %; compound at 20 µM; confirmation repeats;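 mean of two retest wells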
MT1-MMP act inh RFP = recorded beside MT1-MMP act inh, whose call it bears; RFP signal change, %; measured here: RFP expression control read;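 0 = vehicle wells; hits needed this value within 50% of zero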
* hit, by the source's call; i = inactive; ? = inconclusive; / = no result given; & = joins results of further samples; [ ] = remark or other dose.

SMILES	HIV Env fusion	eIF4H inh	Rce1 inhib	Yeast UUG start	CSC inhib	MT1-MMP act inh	MT1-MMP act inh RFP	PABP polyA inh	others
C=CCOc1nc(-c2ccccc2Cl)nc2ccccc12	15.7	-4.7	i	/	6.5	-1.8	1.4	-7.0
c1cc(CSc2nnc(-c3ccc4c(c3)OCO4)o2)ccn1	-74.0	-3.4	/	-17.8	-1.8	-0.6	3.6	8.2
COc1ccc(C(=O)N[C@H]2COC(C)(C)O[C@H]2c2ccccc2)cc1	/	1.3	i	-8.4	0.0	2.6	-1.9	10.0
COc1cc(-c2cc(NC=O)c3ncc(-c4ccc(C(C)=O)cc4)n3c2)cc(OC)c1OC	16.2	/	/	-2.0	/	-4.0	-1.6	/
Cc1ccc(CN(C#N)c2nc(C)cc(C)n2)cc1	/	2.0	i	-0.1	9.3	9.2	3.8	-11.5
Cc1ccc(Cn2c(=O)n(-c3ccccc3)c(=O)c3ccc(C(=O)NCc4ccco4)cc32)cc1	-4.9	-0.9	i	-2.4	2.2	-3.3	-1.9	-1.9
Cc1cc(NC(=O)CSCC(=O)N2CCN(c3cccc(C)c3C)CC2)no1	6.9	/	/	-6.3	/	-0.1	1.3	/
Cc1cc(/C=N/Nc2nc(N3CCOCC3)nc(N3CCOCC3)n2)c(C)n1-c1ccccc1	12.1	7.2	i	/	9.7	-3.6	0.0	1.6
Cc1ccccc1Nc1c(-c2ccccn2)nc2c(C)cccn12	-10.5	0.1	i	-27.2	6.3	0.0	3.9	-7.1
COc1ccc(OC)c(NC(=S)NCc2ccco2)c1	5.7	/	i	-22.5	-12.6	-1.2	2.8	/
Cc1c(C(=O)N/N=C/c2cccnc2)nnn1-c1nonc1N	-3.2	12.0	i	-12.9	/	-0.8	2.5	-1.5
CC(C)C(=O)c1cn(CC(=O)NCC2CCCO2)c2ccccc12 (stereo unspecified)	-14.2	-4.4	i	448.8*	-9.6	1.7	8.4	-3.7
CC(C)CC(C(=O)O)N1C(=O)[C@@H]2[C@H](C1=O)[C@@H]1C[C@H]2C(Br)C1Br (stereo partly specified)	/	-2.7	i	/	7.3	3.5	4.4	1.9
COc1cc(Cn2c3ccc(NC(=O)NCCc4ccccc4)cc3c(=O)n2C)ccc1F	6.7	/	/	4.6	/	0.8	-14.4	/
Cc1ccccc1C1(O)c2ccccc2-c2ccccc21	13.9	/	/	-20.5	/	-1.5	-0.5	/
O=C(NC1CCCCC1)C(c1ccc(F)cc1)N(C(=O)Cc1ccsc1)c1ccc(F)cc1 (stereo unspecified)	/	-2.1	i	-18.8	-13.8	6.3	4.6	-6.4
C/C(=N\Nc1cc(N2CCOCC2)ncn1)c1ccccc1	-22.3	-2.9	i	-21.0	-12.3	-7.9	-7.1	-0.4
CC(C)(C)CC(=O)N[C@@H](Cc1ccccc1)c1nc2ccccc2[nH]1	/	-6.3	i	/	-6.5	-4.9	-2.3	1.9
O=S(=O)(c1ccc2nnn(O)c2c1)N1CCCCC1	8.3	3.4	i	/	-1.7	2.4	4.6	-4.4
CCOC(CCNC(=O)c1cn(CCOC)c(=O)c2c1c1ccccc1n2C)OCC	-29.9	0.4	i	3.1	-1.3	1.7	0.8	-9.3
Cc1cc(C)nc(N2CCCC(C(=O)NC(C)CCc3ccco3)C2)n1 (stereo unspecified)	-59.6	3.4	i	2.4	/	-1.0	1.3	2.2
O=C(c1ccncc1)N(c1ccc2oc3c(c2c1)CCCC3)S(=O)(=O)c1ccc(F)cc1	24.5	-11.0	i	/	12.2	-3.0	-4.1	1.5
CC(C)Nc1nc(NC(C)C)nc(N(C#N)CCOc2ccc(Cl)cc2Cl)n1	/	-1.7	i	-21.8	55.5	-20.0	-22.5	-6.1
Cc1ccc(N(C(=O)Cn2nnc(-c3ccccc3)n2)C(C(=O)NC2CCCCC2)c2ccccn2)cc1C (stereo unspecified)	6.2	10.8	i	-13.7	5.9	-3.2	-2.5	10.9
Cc1cc(NC(=O)CSc2nnc(C3COc4ccccc4O3)n2C)no1 (stereo unspecified)	-3.4	38.1	i	2.0	-7.4	0.7	1.7	-4.7

(more compounds)
SMILES	HIV Env fusion	eIF4H inh	Rce1 inhib	Yeast UUG start	CSC inhib	MT1-MMP act inh	MT1-MMP act inh RFP	PABP polyA inh	others
N#C/C(=C/c1cccc([N+](=O)[O-])c1)c1nnc2n1CCCCC2	26.3	-8.6	i	/	6.5	-9.2	-2.0	0.0
NC(=O)c1cc[n+](CC(=O)NC(=O)Nc2ccccc2)cc1	/	/	/	-11.1	26.9	0.2	3.9	/
NS(=O)(=O)c1ccc(Nc2nc(-c3ccc4ccccc4c3)cs2)cc1	-20.7	0.1	i	-1.7	23.7	-6.8	-11.3	1.0
O=C(Nc1ccccc1)C1CC(O)CN1S(=O)(=O)c1ccc([N+](=O)[O-])cc1 (stereo unspecified)	-2.1	-10.0	i	-15.4	-25.1	0.2	1.7	-0.5
CC(=O)Nc1nnc(SCC(=O)NC2CCCC2)s1	14.2	-12.0	i	4.3	-4.7	3.4	5.2	2.5
COC(=O)c1sc(SC)nc1N	/	2.3	i	/	-11.0	/	/	11.4
Cc1cccc(NC(=S)NCC(C)CSc2ccc(Cl)cc2)c1 (stereo unspecified)	13.3	-2.2	i	/	?	-1.7	-14.5	60.9	eIF4H inh retest=-8.4;PABP polyA inh retest=0.7
Cc1ccc2nc(/C(C#N)=C/c3ccc(-c4cccc([N+](=O)[O-])c4)o3)[nH]c2c1	-3.7	19.0	/	/	18.0	-141.0	3.0	49.7
Cc1ccc(NS(=O)(=O)c2ccc(-c3csc(C)n3)s2)c(C)c1	7.7	7.9	/	-3.1	7.9	-1.2	0.0	4.1
CN1CCN(C(=O)C2=C[C@@H](c3coc4ccccc4c3=O)C[C@@H](OCCCCO)O2)CC1	-8.4[16.7 µM]	11.2	i	-16.9&-10.4	0.7	5.5	5.2	1.6
CNc1ccc(Br)cc(C(=O)/C=C/c2cc(OC)ccc2OC)c1=O	21.7	33.3	i	1.7	50.4	-20.2	-5.1	-9.4
N#Cc1nc(COc2ccc(F)cc2)oc1NCCN1CCOCC1	/	-6.6	i	-7.5	-4.3	-1.3	-0.4	-1.4
CCN(C(=O)COc1ncnc2ccc(Br)cc12)C1CCS(=O)(=O)C1 (stereo unspecified)	-27.3	6.1	i	6.6	-10.2	4.3	-1.8	-2.4
COc1ccc(S(=O)(=O)N2CCN(C(=O)c3ccco3)CC2)c(C)c1C	14.2	-20.4	i	0.5	4.9	-4.0	-2.4	-1.5
COc1ccc(-c2nnc(SCC(=O)NCCC(C)C)nc2-c2ccc(OC)c(OC)c2)cc1OC	8.5	6.7	i	4.6	10.2	-3.1	1.0	8.6
COc1cc(C)c2c(c1C=O)Oc1c(c(C)c(O)c3c1C(O)OC3=O)OC2=O (stereo unspecified)	/	10.7	/	27.0	-3.1	4.8	1.2	31.3
O=C(N/N=C/c1ccc(O)c([N+](=O)[O-])c1)C1CC1(c1ccccc1)c1ccccc1 (stereo unspecified)	36.3	1.1	i	/	14.6	/	/	2.0
CCCNC(=O)C1(CC2CC(c3ccccc3)=NO2)CCN(C(=O)CCCCCBr)CC1 (stereo unspecified)	/	/	i	-22.1	-11.8	3.2	4.4	/
CSc1ccc(/C=C(/NC(=O)c2ccccc2)C(=O)NCCN2CCOCC2)cc1	-22.6	-6.9	i	-15.9	9.0	-1.1	0.5	-2.2
Cc1csc(NC(=O)CSCC(=O)O)c1-c1nc2ccccc2s1	5.2	1.1	i	/	1.1	-6.8	-3.2	22.8
CC(C)N1CCc2[nH]c(=S)[nH]c(=O)c2C1	-15.3	1.5	i	/	-11.4	-1.8	2.7	-1.0
Clc1ccc2nc(-c3ccc(Cl)nc3)[nH]c2c1	-122.8	3.8	i	2.2	5.9	-1.3	-7.7	-5.1
Fc1ccc(NC(=S)NC2CC3CCC(C2)N3Cc2ccco2)cc1 (stereo unspecified)	-1.5	7.8	i	-7.3	-9.6	3.8	10.3	-6.8
O=S(=O)(/N=C(\c1ccccc1)N1CCOCC1)c1cccs1	/	-13.5	i	6.6	-5.4	-2.0	5.3	2.5
CC(=O)[C@H]1[C@H](C#N)C[C@H]2[C@@H]3CC=C4C[C@@H](O)CC[C@]4(C)[C@H]3CC[C@@]21C	-22.8	-15.7	i	-15.2	5.0	4.5	-1.8	-5.0

The final 3 compounds of the part before open the next one:
SMILES	HIV Env fusion	eIF4H inh	Rce1 inhib	Yeast UUG start	CSC inhib	MT1-MMP act inh	MT1-MMP act inh RFP	PABP polyA inh	others
Fc1ccc(NC(=S)NC2CC3CCC(C2)N3Cc2ccco2)cc1 (stereo unspecified)	-1.5	7.8	i	-7.3	-9.6	3.8	10.3	-6.8
O=S(=O)(/N=C(\c1ccccc1)N1CCOCC1)c1cccs1	/	-13.5	i	6.6	-5.4	-2.0	5.3	2.5
CC(=O)[C@H]1[C@H](C#N)C[C@H]2[C@@H]3CC=C4C[C@@H](O)CC[C@]4(C)[C@H]3CC[C@@]21C	-22.8	-15.7	i	-15.2	5.0	4.5	-1.8	-5.0
CC(C(=O)OCC(=O)Nc1ccccc1OC(F)F)N1C(=O)C2CC=CCC2C1=O (stereo unspecified)	13.3	/	/	-9.1	/	-2.0	1.5	/
COc1cccc(-c2nc(CS(=O)(=O)CC(=O)Nc3c(C)cccc3C)c(C)o2)c1	13.0	-4.6	i	-15.9	-6.1	-1.5	-4.8	-1.9
Cc1noc(C)c1COc1ccc2ccc(=O)oc2c1	5.5	0.9	i	-17.9	-4.1	3.7	8.5	-4.5
CC(=NCCN1CCN(C(=S)Nc2ccccc2)CC1)C1=C(O)CC(C)(C)CC1=O	-40.9	0.4	i	-7.6	-4.7	-0.5	5.5	2.8
NS(=O)(=O)c1ccc(CCNC(=O)c2cncc(Br)c2)cc1	/	0.5	i	-3.9	-17.6	-3.2	4.2	-3.0
C#CC1(NC(=O)NS(=O)(=O)c2ccc(C)cc2)CCCCC1	3.2	-6.6	i	-9.5	-2.5	-1.9	2.5	11.1
O=c1c2cnn(-c3ccccc3)c2nc(-c2cccs2)n1-c1cccc(Cl)c1	-12.4	3.8	i	-8.9	-0.8	-12.6	-29.4	20.0
N#Cc1nc(-c2ccccc2Cl)oc1NCC1CCCO1 (stereo unspecified)	10.6	-2.4	i	-0.2	-8.4	18.4	-9.0	-1.7
Cc1ccc(-n2nnnc2-c2cnc(N3CCCC3)nc2C(F)(F)F)cc1	?	1.5	i	/	-1.5	-3.4	-14.3	0.6
O=C1CC(C(=O)Nc2ccc(C(=O)N3CCOCC3)cc2)C2(CCCCC2)O1 (stereo unspecified)	/	-1.1	/	-10.1	-8.6	-1.7	2.3	-1.4
CC(=O)Nc1ccc(S(=O)(=O)N2CCN(Cc3ccncc3)CC2)cc1	-53.5	-5.9	i	-16.6	-7.6	-3.3	6.0	17.6
CC(C)(C)c1csc(NC(=O)c2cccnc2)n1	-87.7	-6.0	i	-22.2	-8.0	-0.2	-6.1	8.5
Cc1ccc(C(=O)CN2CCN(c3ccccn3)CC2)c(C)c1	10.2	22.7	i	-16.1	/	-0.4	3.1	49.5
C=CCc1cccc(C=Nc2c[nH]c(=O)[nH]c2=O)c1O	18.0	-0.4	i	-15.0	/	-1.8	0.0	1.7
O=S(=O)(c1ccccc1C(F)(F)F)N1CCN(S(=O)(=O)c2ccccc2C(F)(F)F)CC1	/	3.0	i	-21.7	1.2	-2.6	-1.6	6.2
Cc1cccc(NC(=O)N2CCCC2C(=O)Nc2ccccc2)c1 (stereo unspecified)	-8.4	2.1	i	-6.9	1.0	-3.2	-2.7	-5.5
